Assay outcomes deposited in PubChem BioAssay by several laboratories.
HSV augment: enhancers of HSV replication in host cells, fold increase, host cell viability. 220,000 tested, 0.005% active. maximum fold increase. HSV replication augmentation in cells;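 active = peak rise of 1.5-fold or more in the series; tested in PC3 cells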;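 also: first round at 10 µM; read as green reporter fluorescence; hits show the peak of a series up to 25 µM; 1 = signal of infected wells without compound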
GALR2 ag: GALR2 receptor agonists, primary screen, cell-based; 140,000 tested, 0.48% active; Galanin receptor type 2 (Homo sapiens), O43603; activation, %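 (tested at 5 µM)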; GALR2-expressing cells, agonist activation read-out;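 active = above mean plus 3 SD of all compounds, about 5% in these data, not always enough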;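 also: 0% = vehicle buffer wells and 100% = reference agonist at full effect; tested in CHO reporter cells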
Target sequence (O43603 whole entry, looked up): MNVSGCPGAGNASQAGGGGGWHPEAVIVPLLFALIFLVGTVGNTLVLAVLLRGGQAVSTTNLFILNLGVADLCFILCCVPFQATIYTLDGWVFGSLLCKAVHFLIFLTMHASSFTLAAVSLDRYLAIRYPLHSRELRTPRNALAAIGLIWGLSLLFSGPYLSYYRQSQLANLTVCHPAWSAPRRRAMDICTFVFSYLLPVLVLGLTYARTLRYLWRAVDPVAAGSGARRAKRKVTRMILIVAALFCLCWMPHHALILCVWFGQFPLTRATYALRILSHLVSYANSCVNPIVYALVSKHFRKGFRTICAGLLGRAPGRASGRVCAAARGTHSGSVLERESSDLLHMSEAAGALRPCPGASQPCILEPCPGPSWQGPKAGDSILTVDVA
INS promoter inh: inhibitors of insulin promoter-driven GFP, primary screen, imaging, TRM-6 cells (human fetal islet line), eGFP reporter, cell count | reporter expression induced with tamoxifen | AID 1273, 2008 | inhibition, % at 2 µM | 130,000 tested, 0.9% active;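 active = inhibition above the mean plus 3 SD, with well images judged a real hit on visual review, cut at about 60% in these data, passing the limit was not always enough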
RGS16-Gao: modulators of RGS16 binding to Galphao, primary screen, biochemical, human proteins, multiplexed bead flow cytometry. 220,000 tested, 0.38% active. AID 1441, 2008. binding response (% of control), % at 10 µM. Regulator of G-protein signaling 16 (Homo sapiens) + Guanine nucleotide-binding protein …. bead-based flow cytometry RGS16-Galphao binding, fluorescence; actives lie on both sides;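 active = below 25% or above 175%, edge rows of some plates excepted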;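 also: Galphao activated by GDP with aluminum fluoride before binding; 100% = wells without compound and 0% = beads without RGS; some results beyond the cut were filed as inactive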
Target sequence (O15492 whole entry, looked up): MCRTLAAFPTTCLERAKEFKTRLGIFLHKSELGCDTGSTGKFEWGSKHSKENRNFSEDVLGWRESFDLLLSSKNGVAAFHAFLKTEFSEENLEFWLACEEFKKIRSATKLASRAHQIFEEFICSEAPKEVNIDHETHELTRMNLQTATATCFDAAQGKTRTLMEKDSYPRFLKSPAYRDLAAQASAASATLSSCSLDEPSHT
Target sequence (P09471 whole entry, looked up): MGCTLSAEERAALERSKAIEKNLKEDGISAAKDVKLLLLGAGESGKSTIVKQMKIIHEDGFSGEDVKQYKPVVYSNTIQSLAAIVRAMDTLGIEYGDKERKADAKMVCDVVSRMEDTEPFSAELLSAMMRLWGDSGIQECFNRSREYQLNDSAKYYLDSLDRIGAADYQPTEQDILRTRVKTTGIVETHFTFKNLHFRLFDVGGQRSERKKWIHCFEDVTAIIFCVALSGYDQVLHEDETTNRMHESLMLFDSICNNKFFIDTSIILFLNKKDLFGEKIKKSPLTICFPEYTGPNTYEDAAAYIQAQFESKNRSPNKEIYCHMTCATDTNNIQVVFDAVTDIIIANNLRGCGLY
PKD1 inh: inhibitors of human PKD1 kinase, biochemical, fluorescence polarization | Serine/threonine-protein kinase D1 (Homo sapiens), Q15139 | PKD1 kinase fluorescence polarization assay | inhibition, %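 (about 10 µM by stock and volumes)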 | 200,000 tested, 0.056% active;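 active = inhibition of 50% or more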;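 also: controls were vehicle for no effect and a reference inhibitor for full effect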
INS promoter inh cell count: second read-out of INS promoter inh, no call of its own (marks repeat the call); normalized cell count, %; measured here: cell count, toxicity; reference of the scale not given here;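 cells exposed to compound for 48 h; stained nuclei by imaging scaled within each plate; lower means fewer cells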
HSV augment primary fold: further read-out of HSV augment, marked with its call; fold increase; compound at 10 µM; measured here: primary screen fold increase 10 uM; tested in PC3 cells;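 GFP signal in the first replicate; 1 = infected wells without compound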
An asterisk follows results filed as active; i = inactive; · = not tested or not shown.

SMILES	HSV augment	HSV augment primary fold	GALR2 ag	INS promoter inh	INS promoter inh cell count	RGS16-Gao	PKD1 inh
CCOc1ccc(NC(=S)N(CCN2CCOCC2)Cc2cc3cc4c(cc3[nH]c2=O)OCO4)cc1	i	0.89	·	·	·	104.2	0.9
COc1ccc2c(c1)c(C(=O)N1CCN(C)CC1)c(C)n2-c1ccccc1	i	1.02	0.4	-28.6	112.3	98.9	7.8
N#Cc1cnn(-c2ncnc3sc(-c4ccccc4)cc23)c1N	i	1.05	-1.6	7.1	123.7	102.9	-9.9
COC(=O)COc1ccc(S(=O)(=O)Nc2ccc3c(c2)OCO3)cc1	i	0.69	-3.1	22.7	142.4	115.8	-9.0
Cc1ccc(CNC(=O)C(NS(=O)(=O)c2cccs2)C(C)C)cc1 (centres undefined)	i	0.93	-1.2	-13.6	51.5	104.3	0.5
CC1(C)[N+]([O-])=C2C(=[N+]([O-])C1(C)C)c1ccccc1/C2=N\O	i	0.993	-1.4	·	·	158.6	0.4
CCCCc1c(O)c2ccccc2n(CCCC)c1=O	i	1.03	-0.4	-13.3	120.0	104.8	-4.8
COc1ccccc1CNC(=O)c1ccc(CNc2c(N3CCCC3)c(=O)c2=O)cc1	i	0.93	-1.5	·	·	96.6	7.5
Cc1cc2ncc(-c3ccc(Cl)cc3)cn2n1	i	0.94	·	0.0	106.1	108.3	-2.7
NC1=NC[C@@H](Cc2ccc(O)cc2)N1CCc1cc(C(F)(F)F)cc(C(F)(F)F)c1	i	0.75	·	·	·	97.5	·
COc1ccc(CCNC(=O)CCNS(=O)(=O)c2cccc3nonc23)cc1OC	i	0.9	-1.3	-23.1	132.5	96.5	-0.5
O=C(N(c1ccccn1)c1ccccn1)C12CC3CC(CC(C3)C1)C2	i	1.09	·	-66.7	105.3	101.0	5.8
S=C(NCc1ccccc1)NC1CCCCC1	i	0.93	·	·	·	109.3	-1.5
O=C(CSc1nc2ccccc2s1)Nc1cc(S(=O)(=O)N2CCOCC2)ccc1O	i	1	-1.3	·	·	29.0	-2.0
COCc1cc(/C=N\NC(=O)COc2ccc(Cl)cc2)ccc1OC	i	1	-2.4	43.8	160.7	96.1	-2.0
COc1ccc(-c2nc(NC(C)=O)sc2-c2ccccc2)cc1	i	0.98	·	·	·	104.6	-4.7
Cn1c(Cl)c(/C=N/OC(=O)c2cccc(Cl)c2)c2ccccc21	i	0.96	-1.1	-9.1	143.3	84.3	-4.4
O=C(O)c1cc(-c2ccc(N3CCOCC3)cc2)nn1-c1ccccc1Cl	i	0.91	·	-53.3	83.6	109.1	-0.8
CCOc1ccc(CN(C)CC(=O)Nc2cccc3ccccc23)cc1OC	i	0.99	·	·	·	101.1	0.6
COc1cc(CC(=O)Nc2ccc(Cl)c(C(F)(F)F)c2)cc(OC)c1OC	i	0.9	-0.9	-61.5	146.7	102.6	23.8

Look-ups from the results shown.
Value of CCOc1ccc(CN(C)CC(=O)Nc2cccc3ccccc23)cc1OC in PKD1 inh: 0.6
Value of COCc1cc(/C=N\NC(=O)COc2ccc(Cl)cc2)ccc1OC in HSV augment primary fold: 1

The list continues:
SMILES	HSV augment	HSV augment primary fold	GALR2 ag	INS promoter inh	INS promoter inh cell count	RGS16-Gao	PKD1 inh
CCNC(=O)CSc1nnc(-c2cccs2)o1	i	0.96	·	-58.3	65.9	70.8	2.2
O=Cc1ccccc1Oc1ccccc1	i	0.89	-1.3	25.0	155.9	98.5	-1.1
COC(=O)c1c(NC(=O)C2CC2)sc2c1CCN(C(C)=O)C2	i	0.87	-1.3	·	·	97.5	-9.5
O=C(NCc1ccncc1)c1ccc(Cl)c(S(=O)(=O)N2CCCCC2)c1	i	1.01	·	·	·	102.3	4.8
Cc1cccc(NC(=O)CCSc2nnc(Cc3ccccc3)o2)c1	i	0.92	-0.9	-8.8	138.7	101.5	4.0
CSc1n[nH]c(=O)n1-c1cccc(Cl)c1	i	0.96	·	·	·	105.8	·
C/C(CC(=O)Nc1ccc(OCc2ccccc2)cc1)=N\NC(=O)C(=O)Nc1cccc(C)c1	i	0.89	-2.0	-29.6	74.8	94.0	-10.0
O=Cc1cccn1-c1ccc(O)cc1	i	0.98	·	-6.2	131.2	98.7	-0.6
CC(=O)Nc1cccc(-c2nc3ccccc3s2)c1	i	0.78	·	·	·	102.5	-2.4
CCN(CC)CCOC(=O)/C=C/c1ccccc1	i	0.98	·	·	·	73.2	·
COc1ccc(/C=N/NC(=O)c2ccncc2)cc1[N+](=O)[O-]	i	0.9	·	16.7	127.6	98.3	-14.1
COc1ccc(NC(=O)CSC2=NC(=O)CC(C)=N2)cc1	i	1.03	-0.7	·	·	102.5	-4.9
COc1cc(O)oc1C=Nc1ccc(C(F)(F)F)cc1	i	0.98	-0.1	33.3	65.6	93.8	5.2
COc1ccc2[nH]c(=O)c(CN(Cc3nnnn3Cc3ccco3)C3CCCCC3)cc2c1	i	1.21	0.3	-23.1	82.9	98.1	14.2
COc1ccc(OC)c(NC(=O)C(CC(C)C)NC(=O)C2CCCCC2)c1 (centres undefined)	i	0.88	-0.4	·	·	101.5	-4.8
CC(C)Oc1cccc(C(=O)C2CCCN(C(=O)c3ccnn3C)C2)c1 (centres undefined)	i	1.11	·	-33.3	149.8	100.1	-9.9
C=CCNC(=O)c1onc(CSc2ccccc2F)c1C(=O)O	i	0.91	-1.0	10.8	33.3	100.3	-0.8
COCCNC(=O)C(c1ccc(O)cc1)N(C(=O)CCC(=O)Nc1nccs1)c1ccc(C)cc1 (centres undefined)	i	0.99	·	0.0	143.0	107.5	-2.0
CS(=O)(=O)N(CC(=O)NCc1ccc2c(c1)OCO2)Cc1ccccc1	i	0.82	-2.0	-168.8	102.7	115.8	2.1
COC(=O)c1ccc(Cl)c(S(=O)(=O)N2CCCC2)c1	i	1.06	·	35.0	104.5	103.8	0.4
Cc1scc(C(=O)Nc2ccon2)c1-c1ccccc1	i	1.02	-2.5	46.1	105.8	97.4	-1.0
COc1ccc(NC(=O)/C=C/c2ccc(OC)c(OC)c2)cn1	i	0.99	·	·	·	61.4	9.4
Cc1ccc(S(=O)(=O)Nc2ccccc2CNc2ccccn2)cc1	i	0.93	-0.3	-26.7	107.4	83.9	0.9
Cc1ccc2c(NC(=O)C3CC3)cccc2n1	i	0.94	0.6	-140.0	109.0	97.9	-5.1
CC1CCN(Cc2nc3c(c(=O)n(C)c(=O)n3C)n2CCc2ccccc2)CC1	i	1.06	-1.3	15.0	115.9	·	1.4
O=c1c(Cc2ccc(F)cc2)c(O)ccn1Cc1ccc(Cl)cc1Cl	i	0.84	-1.8	-66.7	61.2	94.4	-3.0
COC(=O)[C@H](C)NC(=O)Nc1cc(Cl)ccc1C	i	0.79	-1.1	61.5	91.8	101.4	-10.8
CCN(CC)C(=O)COC(=O)c1ccc(C)c(NC(=O)c2ccco2)c1	i	0.91	·	·	·	103.5	-6.5
OCCC1CN(Cc2cccn2-c2nccs2)CCN1C1CCCCC1 (centres undefined)	i	1.04	·	·	·	97.5	-2.1
Cc1ccc(NC(=O)CCN2C(=O)OC(C)(C)C2(C)O)cc1 (centres undefined)	i	0.99	·	-33.3	59.7	102.3	0.0
O=C(/C=C/c1ccc(F)cc1)N1CCCN(C(=O)/C=C/c2ccc(F)cc2)CC1	i	1.11	1.0	·	·	114.8	-2.6
Cc1cccc(C(=O)NC2CC3CCCC(C2)N3C(=O)NC2CCCCC2)c1 (centres undefined)	i	0.95	-2.4	72.1	128.6	89.5	0.2
Nn1c(SC/C=C/c2ccccc2)nnc1-c1cccnc1	i	0.93	-2.2	-12.5	91.5	101.3	-5.6
CCC(=O)c1ccc(OCC(O)Cn2nc(C)c(C(C)=O)c2C)cc1 (centres undefined)	i	1.05	·	·	·	102.4	-5.0
O=c1cc(CSc2nnc(COc3cccc4ccccc34)o2)c2ccccc2[nH]1	i	0.93	·	·	·	102.1	·
COc1cccc(S(=O)(=O)N2CCN(C(=O)c3ccco3)CC2)c1	i	0.93	·	·	·	99.5	-2.3
COc1cccc(NC(=O)C(NC2CCCC2)c2ccccc2)c1 (centres undefined)	i	0.9	-1.7	-2.6	84.3	106.4	-7.1
Cc1cccc(-n2cnc(C(=O)O)c2)n1	i	1.01	·	23.1	99.0	99.7	-3.2
O=C(Nc1nnc(-c2ccncc2)o1)c1ccccc1	i	1.03	·	·	·	98.5	-4.6
Cc1sc2ncn3c(C)nnc3c2c1C	i	0.94	-0.5	·	·	85.0	-3.5
O=C(Nc1nnc(C2CC2)s1)c1ccco1	i	0.88	·	18.2	132.7	111.2	-7.5
CN(C)C(=S)Nc1ccc2c(c1)OCCO2	i	0.93	·	·	·	46.4	·
Cc1noc(C(=O)Nc2ccc3c(c2)OCO3)c1Cl	i	0.99	-3.4	·	·	90.1	3.1
Cc1ccc(CONC(=O)c2ccccc2)cc1	i	0.98	·	·	·	95.1	·
COc1ccc(-c2noc(CSc3nc(N)c(-c4ccccc4)c(=O)[nH]3)n2)cc1OC	i	0.91	-2.8	21.4	106.4	97.5	-13.2
O=S1(=O)N=C(Nc2ccc(O)c(CN3CCCCC3)c2)c2ccccc21	i	0.95	-2.0	15.2	109.4	101.7	-2.0
O=C(Nc1ccccc1O)c1nc(Cl)ccc1Cl	i	0.92	·	36.4	164.8	111.8	-6.1
CC(C)Oc1ccc(NC(N)=O)cc1	i	0.97	-1.4	-39.1	71.9	106.1	8.8
CC(=O)c1ccc(S(=O)(=O)Nc2ccc(C(=O)NCC(c3ccccc3)N(C)C)cc2)cc1 (centres undefined)	i	1.1	·	22.2	54.2	94.8	-3.5
CN(C)C(=O)c1cc(-c2ccccc2)no1	i	0.96	·	-47.6	72.1	95.1	-5.3
CC1(C)NC(=O)N(CC(O)CN2CCCCC2)C1=O (centres undefined)	i	0.91	-3.7	-16.2	180.3	102.3	-1.5
O=C(CSc1nc(-c2ccco2)cc(C(F)(F)F)n1)NCCCn1ccnc1	i	1.02	-3.1	·	·	98.6	-7.9
COc1ccc(C2N3CC4(C)CN2CC(C)(C3)C4=O)cc1OC (centres undefined)	i	0.98	-0.8	·	·	154.4	4.9
CC1=CC(c2ccccc2)n2nc(N3C(=O)C4CC=CCC4C3=O)nc2N1 (centres undefined)	i	0.96	-3.0	14.3	169.0	100.7	-0.4
Cc1cccc(OCC(=O)Nc2ccc(S(=O)(=O)Nc3cc(C)nc(C)n3)cc2)c1	i	0.98	·	·	·	118.4	-0.3
N#Cc1ccc(-n2c(-c3ccccc3)nnc2-c2ccccc2)cc1C#N	i	1.07	-0.6	-104.8	77.6	103.9	-4.2

4 entries from above, set out differently:
Cc1ccc(CONC(=O)c2ccccc2)cc1
  HSV augment: i
  HSV augment primary fold: 0.98
  GALR2 ag: ·
  INS promoter inh: ·
  INS promoter inh cell count: ·
  RGS16-Gao: 95.1
  PKD1 inh: ·
COc1ccc(-c2noc(CSc3nc(N)c(-c4ccccc4)c(=O)[nH]3)n2)cc1OC
  HSV augment: i
  HSV augment primary fold: 0.91
  GALR2 ag: -2.8
  INS promoter inh: 21.4
  INS promoter inh cell count: 106.4
  RGS16-Gao: 97.5
  PKD1 inh: -13.2
O=S1(=O)N=C(Nc2ccc(O)c(CN3CCCCC3)c2)c2ccccc21
  HSV augment: i
  HSV augment primary fold: 0.95
  GALR2 ag: -2.0
  INS promoter inh: 15.2
  INS promoter inh cell count: 109.4
  RGS16-Gao: 101.7
  PKD1 inh: -2.0
O=C(Nc1ccccc1O)c1nc(Cl)ccc1Cl
  HSV augment: i
  HSV augment primary fold: 0.92
  GALR2 ag: ·
  INS promoter inh: 36.4
  INS promoter inh cell count: 164.8
  RGS16-Gao: 111.8
  PKD1 inh: -6.1

Whole records, looked up by structure:
CN(C)C(=O)c1cc(-c2ccccc2)no1 across the screens: HSV augment: i; HSV augment primary fold: 0.96; GALR2 ag: ·; INS promoter inh: -47.6; INS promoter inh cell count: 72.1; RGS16-Gao: 95.1; PKD1 inh: -5.3
N#Cc1ccc(-n2c(-c3ccccc3)nnc2-c2ccccc2)cc1C#N across the screens: HSV augment: i; HSV augment primary fold: 1.07; GALR2 ag: -0.6; INS promoter inh: -104.8; INS promoter inh cell count: 77.6; RGS16-Gao: 103.9; PKD1 inh: -4.2
